GIV Gai3 FP – inhibitors of GIV peptide binding to Galpha-i3, primary screen, biochemical, fluorescence polarization, FITC-GIV GBA peptide, rat Galphai3; Guanine nucleotide-binding protein G(i) subunit alpha-3 (Rattus norvegicus), P08753; 90 min; hits give low values; scaled: aluminum fluoride 0%, vehicle 100%; percent of control (FP), % (test concentration not listed); actives 0.42% (n = 210,000);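 active means replicate mean at 85% of control or lower, very high polarization wells dropped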;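 further: wells of about 15 µL received 100 nL stock; the first replicate is given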
Target sequence (P08753 whole entry, looked up): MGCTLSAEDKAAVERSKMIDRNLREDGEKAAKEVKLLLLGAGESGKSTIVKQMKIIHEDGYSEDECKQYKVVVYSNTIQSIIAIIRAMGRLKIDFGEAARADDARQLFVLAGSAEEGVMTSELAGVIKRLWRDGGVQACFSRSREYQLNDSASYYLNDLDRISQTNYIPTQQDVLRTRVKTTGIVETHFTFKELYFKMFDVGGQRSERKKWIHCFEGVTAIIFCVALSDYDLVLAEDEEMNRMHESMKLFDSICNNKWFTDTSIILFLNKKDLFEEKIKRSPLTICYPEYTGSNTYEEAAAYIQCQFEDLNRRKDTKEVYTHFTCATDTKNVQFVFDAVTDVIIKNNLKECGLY
HCMV NEC inh – inhibitors of HCMV UL50-UL53 interaction, biochemical, HTRF | AID 1918969, 2023 | normalized percent inhibition | actives 0.15% (n = 190,000) | inhibition, % (no concentration beside the values) | HCMV UL50-UL53 nuclear egress complex (human cytomegalovirus);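 active means both replicates at 50% or more, plus weaker picks with an unusually low signal ratio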;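 further: stock transfer was 100 nL into about 20 µL; 0% = negative control wells and 100% = wells with untagged competitor protein; inactives centre near -12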
Sa growth 42C – S. aureus growth inhibition at 42 and 30 °C, primary screen, LtaS inhibitor project, RN4220, two temperatures | actives 0.53% (n = 170,000) | OD600, 20 h, 42 °C; hits give low values | AID 720641, 2013 | relative growth, % (test concentration not listed);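 active means growth at 42 °C up to 50% and 20 or more points under that at 30 °C, or under 10% at both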;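 further: 300 nL library stock went into each well; scaled to the means of positive and negative controls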
Sa growth 42C second temp – recorded beside Sa growth 42C, whose call it bears; relative growth, %; measured here: growth at 30 °C;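 optical density after 20 h as mean of two plates; 100% = untreated growth and lower means inhibition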
Numbers without * were called inactive; nt = not tested or not shown; & = joins results of further samples.

Fields: HCMV NEC inh | Sa growth 42C | GIV Gai3 FP | Sa growth 42C second temp
CCCNC(=O)NCC1CCN(Cc2ccccc2)CC1
    4 | 94 | 96 | 92
COc1ccc(OC)c(NC(=O)c2ccc3snnc3c2)c1
    -1 | 120 | 107 | 89
O=C(Cn1nnc(-c2ccc(C(F)(F)F)cc2)n1)Sc1ccc(F)cc1F
    9 | 105 | 105 | 81
O=C(Nc1ccc(OC(F)(F)F)cc1)c1ccccn1
    -18 | 98 | nt | 100
Cc1cc2n(n1)C(c1ccsc1)Nc1c(C)cccc1-2 (stereo not given)
    nt | 101 | 99 | 87
COc1cccc(N2CCN(C(=O)CN3C(=O)CCn4nc(-c5cn(C)c6ccccc56)cc43)CC2)c1
    -21 | nt | 102 | nt
O=C(Cn1nc(-c2ccccc2)c2ccccc2c1=O)NCCN1CCOCC1
    0 | 112 | 99 | 96
COc1cccc(CNC(=O)c2cnc(OC)cc2C(F)(F)F)c1
    0 | 104 | 103 | 91
CCc1ccccc1NC(=O)C(CC)Sc1nc2cc3c(cc2c(=O)n1Cc1ccco1)OCO3 (stereo not given)
    7 | 117 | 99 | 93
CC1=C(C(=O)Nc2ccc(Br)cn2)C(c2cccc(Oc3ccccc3)c2)C2=C(CCCC2=O)N1 (stereo not given)
    -4 | nt | 101 | nt
Cc1ccc2c(c1)c(=O)c(S(=O)(=O)c1ccc(F)cc1)cn2CC(=O)Nc1ccc2c(c1)OCO2
    -37 | 103 | 104 | 88
Cn1nc(C(=O)NCc2ccccc2Cl)c2c1-c1ccccc1SC2
    -11 | 115 | 101 | 100
CCCc1cc(Nc2ccc(N3CCOCC3)cc2)n2nc(-c3ccco3)nc2n1
    1 | nt | 101 | nt
CCC12CCCN3CCC4(C(=C(C(=O)OC)C1)Nc1ccccc14)C32 (stereo not given)
    0 | 97 | 118 | 71
Cc1nn(-c2ccc(N3CCCCC3)nn2)c(C)c1CCC(=O)NCCc1c[nH]c2ccccc12
    -17 | nt | 112 | nt
C=CCN1C(=O)/C(=N/N=C/c2ccc(OC)c(O)c2)c2ccccc21
    -64 | 81 | nt | 65
Cc1c(C(=O)O)sc2ncnc(N(C)c3ccccc3)c12
    -8 | nt | 117 | nt
COC(=O)N/N=C/c1ccc(OC)c(OC)c1
    -46 | 100 | nt | 95
O=C(Cc1cn2ccsc2n1)Nc1ccccc1Oc1ccccc1
    -12 | 121 | nt | 96
Cc1cc(C(=O)CN2C(=O)c3cccc(N)c3C2=O)c(C)n1-c1cccc(S(=O)(=O)N2CCOCC2)c1
    -48 | 95 | nt | 85
Cc1ccc2c(c1)C=C(C(=O)NCc1ccccc1Cl)C=CO2
    -22 | nt | 101 | nt
Cc1cc(=O)n(C)c(=O)n1CCCCN1CCOCC1
    -11 | 97 | 100 | 81
COC(=O)CSc1nnc(SCC(=O)OC)s1
    -31 | 95 | 106 | 93
CC1=C(C/C=C(\C)CCC[C@H](C)CCC[C@H](C)CCCC(C)C)C(=O)c2ccccc2C1=O
    -59 | 90 | nt | 83
O=C1c2ccccc2C(=O)N1CCCc1nc2ccccc2c(=O)n1Cc1ccco1
    6 | 91 | 105 | 94
COCCCNC(=O)C(C)C1Sc2ccccc2N(Cc2ccccc2F)C1=O (stereo not given)
    -11 | nt | 97 | nt
Cc1ccc(CSc2nc3ccccc3c3nc(CCc4c(C)n[nH]c4C)nn23)cc1
    nt | 102 | 106 | 86
COc1ccc(Oc2cc(C)c3ccccc3n2)cc1
    -9 | nt | 103 | nt
CCOC(=O)c1cc(S(=O)(=O)N2CCCC2C(=O)Nc2nc3ccc(OC)cc3s2)cn1C (stereo not given)
    -20 | nt | 99 | nt
CCOc1ccc(C2Nn3c(CC)nnc3SC2C(=O)Nc2cc(C)ccc2C)cc1 (stereo not given)
    12 | nt | 104 | nt

Overlap with the part before: two compounds, followed by the next part.
Fields: HCMV NEC inh | Sa growth 42C | GIV Gai3 FP | Sa growth 42C second temp
CCOC(=O)c1cc(S(=O)(=O)N2CCCC2C(=O)Nc2nc3ccc(OC)cc3s2)cn1C (stereo not given)
    -20 | nt | 99 | nt
CCOc1ccc(C2Nn3c(CC)nnc3SC2C(=O)Nc2cc(C)ccc2C)cc1 (stereo not given)
    12 | nt | 104 | nt
COc1ccc(-n2cc(C(=O)NCCC3=CCCCC3)nn2)cc1
    -29 | 86 | 100 | 85
N#CCC(O)CNc1ncc(C(F)(F)F)cc1Cl (stereo not given)
    1 | nt | 98 | nt
CN(C)CCNc1ncnc2c1cnn2-c1cccc(Cl)c1
    nt | 133 | 105 | 85
C=CCn1cnc2c(cnn2-c2ccc(F)cc2)c1=O
    -18 | 114 | 103&104 | 86
O=C1C(=C2NCCN2)CC/C1=C\c1ccco1
    -40 | 111 | nt | 86
CCc1ccc(NS(=O)(=O)c2c(C)nc3sc(CC)nn3c2=O)cc1
    -3&-12 | 98 | 104&96 | 83
CCC(=O)NNc1nc2c(C)c(C)ccc2s1
    -8 | 103 | 98 | 93
CN(Cc1ccccc1)C(=O)C1CCN(c2ccc(-c3ccc(F)cc3)nn2)CC1
    7 | nt | 103 | nt
COc1cccc(/C(O)=C/c2nc3ccc(C(=O)Nc4cccc(C)c4)cc3[nH]c2=O)c1
    nt | 89 | 291 | 94
Cc1cc(C)n(CC(O)c2ccccc2)n1 (stereo not given)
    -14 | 95 | 105 | 84
CC1=CC(=O)N(c2c(C)n(C)n(-c3ccccc3)c2=O)C1=O
    16 | 78 | nt | 96
NC(=O)NC1NC(=O)NC1=O (stereo not given)
    -35&-6 | 90 | nt | 86
CCN(CC)c1ccc(N=C2C(=O)Nc3ccccc32)cc1
    -68 | 78 | 108 | 13
O=C(NC1CCCCC1)C1CCCN(C(=O)c2cc(-c3ccccn3)n[nH]2)C1 (stereo not given)
    5 | nt | 100 | nt
COc1cccc(CNC(=O)CSc2nnc(C)c3c(C)n(-c4ccccc4)nc23)c1OC
    nt | 110 | 108 | 90
Cn1cnc(-c2ccccc2NS(=O)(=O)c2ccc(Cl)cc2)n1
    2 | 97 | 108 | 94
CCOC(=O)c1cc2sccc2[nH]1
    -15&9 | 90 | 100&109 | 74
CCOc1ccc(NC(=O)C2CCN(S(=O)(=O)c3cc(-c4noc(C)n4)sc3C)CC2)cc1
    -8 | nt | 106 | nt
Cc1ccc2nc(Cn3nnc(-c4ccccc4)n3)cn2c1
    -4 | 100 | nt | 97
CC(C)n1c(C(F)(F)F)nc2cc(C(=O)N3CCCCC3)ccc21
    -14 | 107 | 101 | 87
Cc1cc(C)nc(SCC(=O)NN=C2CCCC2)n1
    5 | 104 | 104 | 110
COc1ccc(CNC(=O)CSc2nnc(C(=O)Nc3ccc(Cl)cc3)s2)c(OC)c1
    3 | nt | 102 | nt
COc1ccc(-c2cc(C(F)(F)F)nc(SCC(=O)NCCc3ccc(OC)c(OC)c3)n2)cc1
    -42 | 102 | 98 | 96
Cc1cccc(N(C)C(=O)CSc2nc3ncccc3o2)c1
    nt | 106 | 101 | 93
Cc1ccccc1Nc1nc(N)nc(CSc2ncn[nH]2)n1
    -16 | 82 | nt | 91
COc1cc(/C=C2\SC(=O)N(Cc3ccc(Cl)cc3)C2=O)cc(OC)c1OC
    -16 | nt | 106 | nt
Cc1ccc(CNC(=O)C2(S(=O)(=O)c3ccc(C)cc3)CC2)cc1
    nt | 95 | 104 | 91
COc1cc(NS(=O)(=O)c2ccc3[nH]c4c(c3c2)CCCC4)cc(OC)c1OC
    nt | 86 | 108 | 87
COc1cccc2cc(-c3nnc(Nc4c(F)cccc4F)s3)c(=O)oc12
    nt | 100 | 110 | 90
Cc1nc(-c2cc(S(=O)(=O)N3CCCC(C(=O)N4CCOCC4)C3)c(C)s2)no1 (stereo not given)
    -2 | nt | 110 | nt
CCOC(=O)c1c(CN2CCN(CC#N)CC2)oc2cc(Br)c(OC(C)=O)cc12
    3 | 96 | 106 | 92
Cc1cc(C)nc(NS(=O)(=O)c2ccc(Nc3nc(-c4c(C)nc5ncccn45)cs3)cc2)n1
    -57 | nt | 102 | nt
Cc1ccc(S(=O)(=O)NC(C)C(=O)OCc2cc(=O)n3ccsc3n2)cc1 (stereo not given)
    -29 | 85 | nt | 94
CC(N=Cc1c(O)c2ccccc2oc1=O)C(=O)O (stereo not given)
    nt | 80 | 100 | 41
O=C(CN(C(=O)Cn1nnc(-c2cccs2)n1)C1CCCC1)NCc1ccccc1
    -3 | 118 | 105 | 96
O=c1ccc(-c2ccc(S(=O)(=O)NC3CC3)o2)n[nH]1
    -62 | 99 | 105 | 91
COc1cc(NC(=O)NCCN2CCN(c3ccccc3)CC2)cc(OC)c1OC
    57 | 102 | 100 | 82
O=C(CCS(=O)(=O)c1nc(-c2ccc3c(c2)OCO3)cc(C(F)(F)F)n1)Nc1ccccc1F
    -16 | 89 | 108 | 70
CC(C)C1Oc2cc3oc(=O)ccc3cc2C1=O (stereo not given)
    -23 | 97 | 108 | 92
O=C(OCCc1csc2ccccc12)c1ccc(Cl)cc1
    -11 | 85 | 101 | 101
O=C(Cc1cccs1)N1CCOCC1
    -37 | 127 | nt | 80
CC(C)C1COC(c2cccn2Cc2ccccc2Br)=N1 (stereo not given)
    -27 | nt | 111 | nt
CSc1ncccc1C(=O)NCc1nnc2ccccn12
    -35 | 113 | nt | 90
CCc1nn2c(=O)cc(CSc3nnc(-c4cccc(C)c4)o3)nc2s1
    -14 | nt | 102 | nt
Cn1nc(C(=O)NCC2CCCO2)c2c1-c1ccccc1SC2 (stereo not given)
    8 | 111 | 101 | 92

Whole records from above.
CSc1ncccc1C(=O)NCc1nnc2ccccn12 as listed: HCMV NEC inh = -35; Sa growth 42C = 113; GIV Gai3 FP = nt; Sa growth 42C second temp = 90
O=C(Cc1cccs1)N1CCOCC1 as listed: HCMV NEC inh = -37; Sa growth 42C = 127; GIV Gai3 FP = nt; Sa growth 42C second temp = 80

The list continues:
Fields: HCMV NEC inh | Sa growth 42C | GIV Gai3 FP | Sa growth 42C second temp
COc1ccc(C2=NN(C(=O)CNc3ccccc3C(=O)Nc3ccccc3)C(c3ccco3)C2)cc1 (stereo not given)
    -38 | 100 | nt | 97
CCN1CCN(c2c(C(=O)c3ccc(OC)cc3)cnc3ccccc23)CC1
    nt | 74 | 102 | 68
CCN(CC)CCN(C(=O)c1ccccc1Cl)c1nc2cc3c(cc2s1)OCO3
    1 | nt | 104 | nt
O=C1C(=O)N(C2CCN(C(=O)c3ccncc3)CC2)CCN1Cc1ccc(F)cc1
    -19 | nt | 102 | nt
Cc1cc(C)cc(-n2ccn(CC(=O)Nc3cc(C)ccc3C)c(=O)c2=O)c1
    -10 | 104 | 100 | 99
Cc1oc2ncnc(N3CCOCC3)c2c1C(=O)NCc1ccccc1
    nt | 86 | 105 | 85
Cc1ccccc1N(CC(=O)NC1=NCCS1)S(C)(=O)=O
    3 | 96 | nt | 99
OC1(c2ccc(Cl)cc2)CCN(Cn2nnc3ccccc32)CC1
    -51 | 94 | 98 | 89
COc1ccc(CN(C(=O)Nc2cc(C)ccc2C)C2CCN(C(C)=O)CC2)cc1
    nt | 98 | 99 | 91
O=C(Cn1cc(SCc2c(F)cccc2Cl)c2ccccc21)N1CCCCC1
    nt | 122 | 114 | 98
C/C(N)=N\N(C)c1cccc(F)c1C#N
    1 | 117 | 100 | 102
Cc1cc(C)c2c(CC(=O)Nc3ccc(S(=O)(=O)N4CCCCC4)cc3)coc2c1
    -13 | 103 | 106 | 90
C[N+]12CCCCC1C(COC(=O)c1ccccn1)CCC2 (stereo not given)
    -1 | 80 | nt | 98
COc1ccc(N(C)C(=O)NCc2noc3ccccc23)c(OC)c1
    -14 | 97 | 100 | 84
COc1ccc(C2C=C(c3ccccc3)Nc3nc(NC(=O)/C=C/c4ccccc4)nn32)cc1 (stereo not given)
    -28 | 137 | 105 | 61
Cc1ccc(S(=O)(=O)N(C)CC(=O)N2CCC(C)CC2)cc1
    6 | 106 | 108 | 104
O=C(Cn1[nH]c(=O)c2ccccc2c1=O)NC1CCCc2ccccc21 (stereo not given)
    -20 | 93 | nt | 89
CCOC(=O)c1c(S(=O)(=O)N2CCC(C(=O)NCc3ccccc3Cl)CC2)c(C)n(C)c1C
    nt | 122 | 105 | 87
O=C(NCC1CCCO1)NC1CCCCC1 (stereo not given)
    -14 | 86 | 98 | 93
Cc1csc(-c2nc(-c3ccc(Cl)cc3)no2)c1Cl
    -20 | 78 | 98 | 86
CCCSc1nnc2n(-c3cccc(C)c3)c(=O)c3c4c(sc3n12)CCCC4
    -28 | 102 | 101 | 102
CCOC(=O)c1cc(-c2ccccc2)n(CC(=O)N(C)c2ccc(OC)cc2)c1C
    nt | 100 | 99 | 87

Compounds as they come, and some 0.79% of all compounds hit somewhere here.
